# Screening data: PubChem BioAssay, National Center for Advancing Translational Sciences (NCATS)
# HPGD block = HPGD (human) dehydrogenase inhibition | AID 894 | purified HPGD, NADH fluorescence kinetic, PGE2 substrate | hit rate 4.3% among 150,000 | Potency, µM, for the others: at the top dose activity change, negative = inhibition, hits mostly inhibitors; active = well fitted inhibition curve with a large enough effect (not every such curve was filed as active); inconclusive = small, poorly fitted or top-dose-only effect, or another doubt; inactive = no such curve, though single readings can be large or run the other way;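 also: top concentration of the series not given in the record; plate controls included wells without enzyme; inactives centre near -10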
# Target sequence (P15428 whole entry, looked up): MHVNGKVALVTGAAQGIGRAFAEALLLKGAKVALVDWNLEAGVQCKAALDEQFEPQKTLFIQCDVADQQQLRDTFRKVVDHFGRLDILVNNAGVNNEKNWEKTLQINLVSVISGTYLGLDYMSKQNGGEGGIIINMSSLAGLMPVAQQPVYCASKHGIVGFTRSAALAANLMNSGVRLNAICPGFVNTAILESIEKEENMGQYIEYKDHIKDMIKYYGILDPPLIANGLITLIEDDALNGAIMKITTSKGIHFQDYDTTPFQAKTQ
#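 NADH formation kinetics: reaction with 30 uM PGE2 and 1 mM NAD+ (final), 20 nM enzyme, Tris-HCl pH 8 with Tween 20, after 15 min compound preincubation at room temperature. Fluorescence change, last versus first of five reads.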
# Active calls of the source: *; ? = inconclusive; [ ] = dose if it differs, or a comment. % is scaled to controls: 0 for no effect and ±100 for the full control effect; potency is read from the fitted curve at half-maximal effect.
SMILES,HPGD block
C=C(C(C)=O)C(O)c1ccco1 (stereo not drawn),-7%
Cc1ccc(C(=O)c2coc3ccc(OCC(=O)O)cc23)cc1,-6%
CCOC(=O)Cc1csc(NC(=S)NC(=O)c2ccc([N+](=O)[O-])cc2)n1,-12%
O=C(CC1(O)C(=O)Nc2ccccc21)c1cccc(Br)c1 (stereo not drawn),-10%
COCCOC(=O)CC1=NC(=O)CS1,-10%
Cc1ccc(-c2c(C#N)c(N)nc3c2CCCCC3)o1,?
O=C(NCc1ccccc1)C(=O)Nc1nc(C23CC4CC(CC(C4)C2)C3)cs1,-18%
COc1cccc(C=Nc2ccc3c(c2)OCCO3)c1O,-18%
CCOC(=O)CNc1ccc(C(=O)OCC)cc1[N+](=O)[O-],-9%
O=C1NC(=O)C(CC(=O)N(Cc2ccco2)C2(C(=O)NC3CCCC3)CCCCC2)N1 (stereo not drawn),5%
O=[N+]([O-])c1c(NCCCO)cc(N2CCN(Cc3ccc4c(c3)OCO4)CC2)c2nonc12,-19%
O=C1CC(c2cc([N+](=O)[O-])ccc2Cl)c2c(ccc3ccccc23)N1 (stereo not drawn),2%
CC/C(=N/NS(=O)(=O)c1ccc(Cl)cc1)c1ccc(O)cc1,2%
CCCCCCC1CC(CC(=O)Nc2ccc([N+](=O)[O-])cc2)C(=O)O1 (stereo not drawn),-3%
COc1cc2c(C(=O)NCCCOC(C)C)cn(CC(C)C)c(=O)c2cc1OC,-13%
CC(=O)Oc1ccc(N2C(=O)CCC2=O)cc1,-10%
CCOc1ccc(CCNC(=O)CCN2C(=O)COc3ccccc32)cc1OCC,-5%
NCC1CCCCC1CC(=O)O (stereo not drawn),-5%
COc1ccc(CN2CC34C=CC(O3)C(C(=O)O)C4C2=O)cc1 (stereo not drawn),-4%
COc1ccc(C2=NOC(C(=O)N3CCCc4ccccc43)C2)cc1 (stereo not drawn),-9%
COc1cc(NC(=O)c2cc3nc(-c4ccccc4)cc(-c4ccccc4)n3n2)cc(OC)c1OC,?
O=C(c1ccco1)N1CCN(C(=O)N2c3ccccc3Sc3ccccc32)CC1,-11%
Cc1ccc(C)c(N2CCN(C(=O)c3ccccc3Br)CC2)c1,-5%
COC(=O)CSc1nnc(Cc2ccccc2)n1-c1ccc(C)cc1,-3%
O=C(NCc1ccc(F)cc1)c1cc2n(n1)C(C(F)(F)F)CC(C1CC1)N2 (stereo not drawn),-2%

# The results go on:
SMILES,HPGD block
O=C(COc1ccccc1C(=O)N/N=C\c1ccc(O)c(O)c1)N/N=C/c1ccc(O)c(O)c1,-30%
COc1cccc(CC(=O)Nc2nc(-c3cccnc3)cs2)c1,-6%
COc1ccc(-c2ccc(C#N)c(SCC(=O)OCc3ccccc3)n2)cc1OC,?
CC(C)CC(c1nnnn1Cc1ccco1)N1CCN(C2CCCC2)CC1 (stereo not drawn),-5%
O=C(C(Cc1ccccc1)n1cccc1)N1CCN(C2CCCCC2)CC1 (stereo not drawn),1%
CC(=O)OC1CC2C(C)(C)C(=O)[C@@H]3OC3[C@@]2(C)C2CC[C@]3(C)C(=CC(=O)OC3c3ccoc3)[C@]12C (stereo partly drawn),-2%
CC(C)C[C@@H](CC(=O)N[C@@H](CCC(=O)O)CC(=O)O)NC(=O)[C@@H]1CNCC[C@H]1NC(=O)C[C@H](CCCN)NC(=O)C[C@H](Cc1c[nH]c2ccccc12)NC(=O)[C@@H]1CCCC[C@H]1N,-6%
Oc1c(Cl)cc(Cl)c(Cl)c1Cl,?
Cn1nc(C(F)(F)F)c2cc(NC(=O)OCc3ccc(F)cc3)sc21,-21%
COc1ccccc1-c1cc(C(F)(F)F)nc(NCc2ccco2)n1,-23%
COc1ccccc1CNC(=O)C1CCN(C(=O)N(C)C)CC1,-15%
O=C(Nc1ccccc1)c1nnsc1S(=O)c1ccc(Cl)cc1 (stereo not drawn),7.9µM*
CCn1c2ccccc2c2cc(NC(=O)COc3ccccc3)ccc21,?
N=c1oc2ccccc2cc1-c1nc(-c2ccccc2)cs1,?
COc1cccc(C(CC(=O)NCc2ccco2)NS(=O)(=O)c2ccc(C)cc2)c1OC (stereo not drawn),-9%
Clc1ccccc1-c1nccc(-n2ccnc2)n1,?
c1ccc(Nc2ccccn2)cc1,-20%
CCCCNC(=O)Nc1cc(C(F)(F)F)c[nH]c1=O,?
COc1ccccc1OCCNc1cc(N2CCOCC2)ccc1[N+](=O)[O-],-18%
CC(=O)NC(c1ccccc1)c1cccnc1 (stereo not drawn),-5%
CCOC(=O)Nc1ccc2c(c1)N(C(=O)CN1CCN3CCCC3C1)c1ccccc1CC2 (stereo not drawn),-3%
CC(NC(=O)COc1ncnc2cc([N+](=O)[O-])ccc12)c1ccccc1 (stereo not drawn),-16%
O=C(NC(CSCc1ccccc1)C(=O)N/N=C/c1ccc(O)cc1O)c1ccc([N+](=O)[O-])cc1 (stereo not drawn),-9%
O=C(NCc1ccccc1)c1cc(-n2cnnc2)ccc1Cl,-7%
CSc1nc2[nH]c3c(c2c2nncn12)CC(C)(C)OC3,-6%

# Reformatted with each value named: entries from further up
Cc1ccc(C(=O)c2coc3ccc(OCC(=O)O)cc23)cc1
  HPGD block: -6%

CCOC(=O)Cc1csc(NC(=S)NC(=O)c2ccc([N+](=O)[O-])cc2)n1
  HPGD block: -12%

O=C(CC1(O)C(=O)Nc2ccccc21)c1cccc(Br)c1 (stereo not drawn)
  HPGD block: -10%

COCCOC(=O)CC1=NC(=O)CS1
  HPGD block: -10%

# Carrying on.
SMILES,HPGD block
CCn1c(Cc2c(C)[nH]c3ccccc23)nnc1SCC(N)=O,0%
CC(=O)Cc1nsc(NC(=O)c2ccc(-c3cc(C(F)(F)F)ccc3Cl)o2)n1,-16%
C/C(Cl)=C/Cn1c(=O)c2c(nc(Br)n2Cc2ccccc2)n(C)c1=O,-18%
COC(=O)c1[nH]c2ccccc2c1NC(=O)CN1CCC(C(N)=O)(N2CCCCC2)CC1,?
COc1cc(NC2c3ccccc3C(=O)N2Cc2ccc3c(c2)OCO3)cc(OC)c1OC (stereo not drawn),-15%
CCOC(=O)c1sc(NC(=O)c2cc3n(n2)C(C(F)(F)F)CC(c2cccs2)N3)c(C(=O)OCC)c1C (stereo not drawn),-18%
C=C/C(=C\C)C[C@@H](CC(=O)N[C@@H](CCC(=O)O)CC(=O)O)NC(=O)[C@@H]1CNCC[C@H]1NC(=O)C[C@@H](NC(=O)C[C@H](Cc1ccccc1)NC(=O)[C@@H]1CCCC[C@H]1N)C(C)C,-5%
COC(=O)C(NS(C)(=O)=O)(c1c(C)[nH]c2ccccc12)C(F)(F)F (stereo not drawn),-6%
CC(=O)c1cc(C#N)c(Oc2cccc(C(F)(F)F)c2)nc1C,-12%
COc1cccc(C2CC(c3ccccc3OC)n3nc(N)nc3N2)c1 (stereo not drawn),-6%
CC1(C)CC(=O)C(C=Nc2ccc3cn[nH]c3c2)=C(O)C1,-18%
CCc1ccccc1NC(=O)CSc1ccsc1[N+](=O)[O-],?
Cc1onc(-c2ccccc2)c1C(=O)N1CC(C)OC(C)C1 (stereo not drawn),-8%
CCCOc1ccc(N2C(=O)CC(N(CCc3ccc(OC)c(OC)c3)C(=S)Nc3ccccc3)C2=O)cc1 (stereo not drawn),-16%
CCS(=O)(=O)Nc1cccc(-c2cc(-c3ccccc3)c3cc(C)ccc3n2)c1,?
N#CC1=C(N)C(C#N)(C#N)[C@H](c2cccnc2)[C@H]2CN(C(=O)OCc3ccccc3)CC=C12,-16%
Cc1cc2nc(C3CCN(Cc4nnnn4Cc4cccs4)CC3)[nH]c2cc1C,-1%
Cc1nc(NC2CCCC2)sc1C(=O)N(C)C,-14%
O=C(NCCc1ccccc1)c1ccc(CS(=O)(=O)Cc2ccccc2F)o1,-11%
O=C(NC(NC(=S)Nc1ccccc1Cl)C(Cl)(Cl)Cl)c1cccc(Cl)c1 (stereo not drawn),-5%
COC(=O)c1cc(NC2c3ccccc3C(=O)N2Cc2ccco2)cc(C(=O)OC)c1 (stereo not drawn),-13%
CC(=O)Nc1ccc(-c2csc(NC(=O)CCCc3cccs3)n2)cc1,-22%
CCCC(=O)NC(=S)Nc1ccccc1C(F)(F)F,-14%
COc1ccc(-c2ncncc2-c2csc(C)n2)c(O)c1OC,-4%
CC[N+](C)(CC)CCOC(=O)C1c2ccccc2Oc2ccccc21,-2%

# With a hit mark in HPGD block, among the entries above:
SMILES,HPGD block
O=C(Nc1ccccc1)c1nnsc1S(=O)c1ccc(Cl)cc1 (stereo not drawn),7.9µM*

# The listing continues.
SMILES,HPGD block
ICCc1ccccc1,10µM*
Cc1cccc(OCc2nnc(SCC(=O)Nc3cccc(C(=O)N4CCOCC4)c3)n2C)c1,-4%
C=CCOc1ccccc1OC[C@H](O)CNC(C)C,-6%
COc1ccc(CC(=O)NNC(=O)CSc2nnc(Cc3ccc(OC)cc3)n2-c2ccccc2)cc1,-7%
O=C(CSCc1ccccc1)Nc1cccc(C(=O)Nc2ccc(C(=O)O)cc2)c1,?
COC(/C=C/Nc1ccc(OC)cc1)=C(C#N)C#N,-16%
COc1ccc(-c2nn3c(C4CCCCC4)nnc3s2)cc1OC,?
N[C@H]1[C@@H](C(=O)O)[C@H]2C=C[C@H]1C2,2%
O=S1CC/C(=N\O)c2ccccc21 (stereo not drawn),-7%
CN(C)S(=O)(=O)c1ccc(C(=O)Nc2ccc(Cl)cc2)cc1,-9%
Cc1cccc(C)c1NC(=O)COC(=O)c1cccc2c1C(=O)c1ccccc1C2=O,-12%
O=c1c2c(-c3cccs3)csc2ncn1-c1ccc(Br)cc1,?
O=C(O)c1ccccc1-c1ccccc1C(=O)NCc1ccco1,3%
O=S(=O)(c1ccc(Cl)s1)N1CCc2ccccc2C1,-14%
COc1cccc(C(=O)Nc2c(C)n[nH]c2C)c1,-2%
CCOc1ccc(NC(=O)CN2CCN(CC(=O)Nc3ccc(Cl)c(C(F)(F)F)c3)CC2)cc1,-17%
C[C@@H]1C[C@H]2[C@@H]3CCC4=CC(=O)C=C[C@]4(C)[C@@]3(F)[C@@H](O)C[C@]2(C)[C@@]1(O)C(=O)COP(=O)(O)O,-12%
O=C(O)CNC(=O)CCN1C(=O)c2ccccc2C1=O,-5%
CCOC(=O)c1cc(C)sc1NC(=O)C(c1ccccc1)c1ccccc1,-29%
Brc1ccccc1-c1nnc(CSc2nnc3sc4ccccc4n23)o1,-25%
COC(=O)C1=C(C(=O)OC)[C@@H]2N(C)c3ccc(OC)cc3[C@@]23C[C@@H](C(=O)OC)N(C(=O)c2ccc(Br)cc2)C3=N1,-2%
CCOc1ccc(NC(=O)CSc2nccn2C)cc1,-9%
FC(F)(F)c1ccc(CN2C[C@@H]3C(c4ccc(C(F)(F)F)cc4)C4(c5ccccc5)CC3(C4)[C@H]2c2ccccc2)cc1 (stereo partly drawn),-5%
O=c1[nH]c(=O)n(-c2ccccc2)c2c1C(C(F)(F)F)(C(F)(F)F)N=C(C1CCCCC1)N2,?
COc1ccccc1-n1c(SCc2cc(=O)oc3cc(O)ccc23)nc2ccccc2c1=O,-22%

# Ordered by the number under HPGD block (ascending): three from the list above.
canonical_smiles	HPGD block
CC1(C)CC(=O)C(C=Nc2ccc3cn[nH]c3c2)=C(O)C1	-18%
CSc1nc2[nH]c3c(c2c2nncn12)CC(C)(C)OC3	-6%
O=C(NC(NC(=S)Nc1ccccc1Cl)C(Cl)(Cl)Cl)c1cccc(Cl)c1 (stereo not drawn)	-5%

# The list continues:
SMILES,HPGD block
Cc1cc(C)cc(NC(=S)N2CCC(c3nc4ccccc4s3)CC2)c1,-4%
CCOC(=O)COc1ccc(/C=C2/SC(=Nc3ccccc3)N(Cc3cccnc3)C2=O)cc1OC,-21%
O=C(NNC(=O)C(c1ccccc1)c1ccccc1)c1ccccn1,-6%
O=C(c1cnccn1)N1CCC2(CCCN(c3ccc(-c4ccccc4)cc3)C2)CC1,-5%
O=C(CSc1nc2ccccc2n1CC(=O)NCc1ccccc1)NCc1ccco1,-6%
N#Cc1ccc(OCC(=O)Nc2ccccc2NS(=O)(=O)c2cccs2)cc1,-24%
O=C(CN1CCN(Cc2ccc(Cl)cc2)CC1)N/N=C/c1c[nH]c2ccccc12,1%
Clc1cccc2c1Sc1ccccc1CC2N1CCNCC1 (stereo not drawn),44%[activator]
Cc1ccc(N2C(=O)[C@@H]3C(C(=O)C(c4ccccc4)c4ccccc4)=NN[C@@H]3C2=O)cc1,-14%
Nc1c2c(nc3ccc(Br)cc13)N(c1ccccc1)CC2,23%
c1ccc(CSc2nnc(-c3ccco3)n2Cc2ccco2)cc1,-15%
COCCSc1nnc(NC(=O)COC)s1,-1%
O=S(=O)(c1ccccc1Cl)N1CCCC1c1nc(-c2ccccc2Cl)no1 (stereo not drawn),-8%
CC(NC(=O)Cn1nc(C(=O)O)c2ccccc2c1=O)c1ccccc1 (stereo not drawn),-5%
COc1ccc2ncc(S(=O)(=O)c3ccccc3)c(N3CCC4(CC3)OCCO4)c2c1,0%
C[N+]1([C@H](CO)Cc2c[nH]c3ccccc23)Cc2ccccc2C1,-9%
Cc1nn(C)c(C(=O)NNC(=S)NCc2ccco2)c1Cl,35µM*
CC1(C)Cc2ccccc2C(=O)N1,-13%
COc1ccc(/C=C2\SC(c3ccc(C)cc3)=NC2=O)cc1OC,?
CN(CCCCCC(=O)/C=N/O)Cc1ccccc1,-1%
CCOC(=O)c1oc2ccccc2c1CN1CCN(C(=O)c2ccccc2)CC1,0%
COCCn1c(Sc2ccccc2)nc2c1c(=O)[nH]c(=O)n2C,-6%

# A portion of the library; count on the stated rates, not on these rows.
